# rRNA inh HTS = inhibits bacterial ribosomal RNA function over humanized ribosomes. E. coli WT GFP vs humanized-ribosome RFP mutants, fluorescence, 24 h; hits give low values; DMSO median 0, no signal -100. GFP signal change (wild-type ribosome), % (concentration not given with the values). actives 1.6% (n = 350,000). AID 720706;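 active means significant combined selectivity score with lowered wild-type GFP, culture density cut under 30%, mutant RFP and density less affected; inactive means any of these conditions unmet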; further: one replicate is shown; some compounds called inactive have numbers as strong as hits
# rRNA inh HTS OD600 = recorded beside rRNA inh HTS, whose call it bears; OD600 change, %; measured here: OD600 growth;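 optical density of the mix in the first replicate; 0 = DMSO median and -100 = no signal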
# rRNA inh HTS RFP = also measured in rRNA inh HTS; calls as there; RFP signal change, %; measured here: RFP humanized mutant strains;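 first replicate; 0 = DMSO median and -100 = no signal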
# Starred values were filed as active, the others as inactive; i = inactive; / = not tested or not shown; & = joins results of further samples.
SMILES,rRNA inh HTS,rRNA inh HTS OD600,rRNA inh HTS RFP
CC(C)C[C@@H](CN1CCC[C@H]1CN1C(=O)C(=O)NC[C@@H]1Cc1ccccc1)N1C[C@H](Cc2ccc(O)cc2)N(CC2CCCCC2)C(=O)C1=O,3,18,2.2
C[C@@H]1CN([C@@H](C)CO)C(=O)c2cccc(NC(=O)c3ccc(-c4nccs4)cc3)c2O[C@H]1CN(C)S(=O)(=O)c1ccccc1,-15,-14,-4.3
COc1ccc(NC(=O)N[C@H]2CC[C@H](CC(=O)NC3CCCCC3)O[C@H]2CO)cc1,-2,6,1.3
C[C@H](CO)N1C[C@H](C)[C@@H](CN(C)S(=O)(=O)c2ccccc2)Oc2c(NC(=O)C3CCOCC3)cccc2C1=O,3,7,0.6
CC(=O)Nc1ccc(CN2C(=O)C(Cc3ccccc3)ON=C2c2ncccc2C)cc1 (stereo unspecified),0,6,-3.3
O=C(C[C@H]1C[C@@H]2c3cc(NC(=O)Nc4ccccc4)ccc3O[C@@H]2[C@H](CO)O1)NCc1ccccc1,-11,-13,1.0
CN1CCN(C(=O)c2cc3c(c(-c4cccc(Br)c4)n2)[C@H](CCO)N(S(=O)C(C)(C)C)C3)CC1 (stereo partly specified),3,8,6.6
O=C(Nc1cccc(Cl)c1)N[C@@H]1CC[C@@H](CCNC(=O)C2CCCCC2)O[C@@H]1CO,-6,-11,0.7
CCC(=O)Nc1ccc2c(c1)OC[C@@H](C)N(C(=O)CC)C[C@H](C)[C@H](OC)CN(C)C2=O,1,-1,-1.9
CCC(=O)Nc1ccc2c(c1)C(=O)N(C)[C@@H]1CC[C@@H](CC(=O)N3CCCCC3)O[C@H]1CO2,2,3,-3.2
CCOC(=O)C1=C(C)NC(C)=C(C(=O)OCC)C1c1ccncc1,-2,-3,-4.8
CN(C)CCNc1ncnc2c1ncn2[C@H]1CN(Cc2ccccc2)C[C@@H](CO)O1,12,9,1.5
Cc1noc(C)c1S(=O)(=O)Nc1ccc2c(c1)CC(=O)N([C@H](C)CO)C[C@@H](C)[C@@H](CN(C)Cc1ccncc1)O2,-1,7,0.0
O=C(Nc1ccccc1F)N[C@@H]1CC[C@H](CCNS(=O)(=O)c2ccc(F)cc2)O[C@@H]1CO,-3,0,1.7
CCC(=O)Nc1ccc2c(c1)C(=O)N(C)C[C@@H](OC)[C@@H](C)CN(CC1CC1)[C@H](C)CO2,2,4,-0.7
CCC(=O)N[C@H]1C=C[C@@H](CC(=O)NCc2ccccc2F)O[C@H]1CO,4,5,-0.2
COCC(=O)Nc1ccc2c(c1)[C@H]1C[C@H](CC(=O)NC3CCCCC3)O[C@@H](CO)[C@H]1O2,1,1,1.2
CNC[C@H]1Oc2cc(C3=CCCC3)ccc2S(=O)(=O)N([C@H](C)CO)C[C@@H]1C,3,22,0.9
CO[C@H]1CN(C)C(=O)c2ccc(NS(=O)(=O)C3CCCCC3)cc2OC[C@H](C)NC[C@@H]1C,1,6,-0.4
CC(C)n1nnnc1C1c2ccccc2C(=O)N1Cc1cccs1 (stereo unspecified),12,16,2.0
C[C@H](CO)N1C[C@H](C)[C@H](CN(C)C(=O)Nc2ccc3c(c2)OCO3)Oc2c(NC(=O)C3CCCCC3)cccc2C1=O,-4,-4,-3.5
O=C(O)C[C@H]1CC[C@H]2[C@@H](COC[C@H](O)CN2S(=O)(=O)c2ccc(Oc3ccccc3)cc2)O1,-3,-8,0.4
C[C@H](CO)N1C[C@H](C)[C@H](CN(C)C(=O)Nc2ccccc2)Oc2ccc(NC(=O)C3CC3)cc2C1=O,2,13,0.2
COc1ccc(S(=O)(=O)Nc2ccc3c(c2)C(=O)N([C@@H](C)CO)C[C@@H](C)[C@H](CN(C)C(=O)CCCN(C)C)OCCCC[C@H](C)O3)cc1,4&-2,12&-1,-2.1&-5.3

# Reprinted from the part before: two compounds, then new ones.
SMILES,rRNA inh HTS,rRNA inh HTS OD600,rRNA inh HTS RFP
C[C@H](CO)N1C[C@H](C)[C@H](CN(C)C(=O)Nc2ccccc2)Oc2ccc(NC(=O)C3CC3)cc2C1=O,2,13,0.2
COc1ccc(S(=O)(=O)Nc2ccc3c(c2)C(=O)N([C@@H](C)CO)C[C@@H](C)[C@H](CN(C)C(=O)CCCN(C)C)OCCCC[C@H](C)O3)cc1,4&-2,12&-1,-2.1&-5.3
C[C@@H]1CN([C@H](C)CO)C(=O)c2cc(-c3ccncc3)cnc2O[C@H]1CN(C)C(=O)c1ccncc1,5,10,1.3
COc1ccc(NC(=O)Nc2ccc3c(c2)C(=O)N([C@H](C)CO)C[C@H](C)[C@H](CN(C)S(=O)(=O)c2ccc(F)cc2)O3)cc1,-2,-4,0.4
COc1ccc(-c2ccccc2[C@H]2[C@@H](CO)N(C(=O)NC(C)C)[C@H]2C#N)cc1,-1,0,-2.1
CN(C)C(=O)C[C@H]1CC[C@@H](NC(=O)NC2CCCCC2)[C@@H](CO)O1,2,9,-1.7
O=C(C[C@H]1CC[C@H]2[C@@H](COC[C@@H](O)CN2S(=O)(=O)c2ccc(F)cc2)O1)NCC1CCCCC1,2,-9,-0.9
COCC(=O)N1CCC2(CC1)CN(Cc1cccc(F)c1)[C@@H](CO)c1c2c2ccc(OC)cc2n1C,4,-6,-0.7
Cc1ccc(S(=O)(=O)N(C)C[C@H]2OCCCC[C@H](C)Oc3ccc(NC(=O)Nc4ccc(F)cc4)cc3C(=O)N([C@@H](C)CO)C[C@H]2C)cc1,2,3,0.3
COc1ccc(NC(=O)N(C)C[C@H]2Oc3c(NS(=O)(=O)c4ccc(C)cc4)cccc3C(=O)N([C@@H](C)CO)C[C@H]2C)cc1,1,-1,-3.1
COc1ccc(-c2ccc3c(c2)[C@@H]2[C@@H](CCN2C(=O)c2ccncc2)[C@@H](CO)N3C)cc1,-10,-7,-0.6
C[C@@H]1CN([C@H](C)CO)C(=O)c2cc(NC(=O)CCCN(C)C)ccc2O[C@H]1CN(C)S(=O)(=O)c1cccs1,-1,-5,0.4
CC(C)NC(=O)N(C)C[C@@H]1Oc2c(NS(=O)(=O)c3cccs3)cccc2C(=O)N([C@@H](C)CO)C[C@H]1C,2,7,-1.9
CC1(C(=O)Nc2ccc3nc[nH]c3c2)CCN1C(=O)C1(c2ccccc2)CC1 (stereo unspecified),-7,-13,4.0

# The closing 2 compounds of the section before open the next one:
SMILES,rRNA inh HTS,rRNA inh HTS OD600,rRNA inh HTS RFP
CC(C)NC(=O)N(C)C[C@@H]1Oc2c(NS(=O)(=O)c3cccs3)cccc2C(=O)N([C@@H](C)CO)C[C@H]1C,2,7,-1.9
CC1(C(=O)Nc2ccc3nc[nH]c3c2)CCN1C(=O)C1(c2ccccc2)CC1 (stereo unspecified),-7,-13,4.0
C[C@@H]1CN([C@H](C)CO)C(=O)c2cc(NC(=O)Cc3ccccc3)ccc2O[C@@H]1CN(C)C(=O)Nc1ccc(F)cc1,-2,-7,-2.2
C[C@@H]1CCCCO[C@@H](CN(C)C(=O)c2ccccc2)[C@@H](C)CN([C@@H](C)CO)C(=O)c2cc(NC(=O)Nc3ccccc3)ccc2O1,1,-2,-0.2
COc1ccc(NC(=O)N(C)C[C@@H]2OCCCC[C@H](C)Oc3ccc(NS(=O)(=O)c4cn(C)cn4)cc3C(=O)N([C@H](C)CO)C[C@H]2C)cc1,2,6,-2.2
COC(=O)CCCC[C@@H]1O[C@H](CCc2ccccc2)Cc2[nH][nH]c(=O)c21,-14,-20,-5.3
COc1cccc(S(=O)(=O)Nc2ccc3c(c2)C(=O)N(C)[C@@H]2CC[C@H](CC(=O)NCC4CCCCC4)O[C@H]2CO3)c1,-5,-10,3.0
C[C@@H]1CN([C@@H](C)CO)C(=O)c2cc(NS(=O)(=O)c3cccs3)ccc2O[C@@H](C)CCCCO[C@@H]1CN(C)C,0,-2,-2.5
C[C@@H]1CN([C@@H](C)CO)C(=O)c2cc(Br)cnc2O[C@@H]1CN(C)CC1CCOCC1,9,7,-3.8
C[C@@H]1CN([C@H](C)CO)C(=O)c2cc(-c3ccc(F)cc3)cnc2O[C@@H]1CN(C)C(=O)C1CCC1,0,11,-1.3
CN1C[C@@H](O)COC[C@H]2O[C@H](CC(=O)NC3CCCC3)CC[C@@H]21,i,/,/
CCC(=O)N(C)C[C@@H]1Oc2ncc(C#Cc3ccc(OC)cc3)cc2C(=O)N([C@@H](C)CO)C[C@H]1C,-1,4,-0.1
COc1ccccc1NC(=O)Nc1ccc2c(c1)C(=O)N(C)C[C@@H](OC)[C@H](C)CN(Cc1ccccc1Cl)[C@H](C)CO2,0,3,-1.3
C[C@H](CO)N1C[C@H](C)[C@@H](CN(C)C(=O)NC2CCCCC2)OCCCC[C@H](C)Oc2ccc(NS(=O)(=O)c3ccc(F)cc3)cc2C1=O,1,-3,4.1

# Fetched by compound from the list above (3):
SMILES,rRNA inh HTS,rRNA inh HTS OD600,rRNA inh HTS RFP
C[C@@H]1CCCCO[C@@H](CN(C)C(=O)c2ccccc2)[C@@H](C)CN([C@@H](C)CO)C(=O)c2cc(NC(=O)Nc3ccccc3)ccc2O1,1,-2,-0.2
CCC(=O)N(C)C[C@@H]1Oc2ncc(C#Cc3ccc(OC)cc3)cc2C(=O)N([C@@H](C)CO)C[C@H]1C,-1,4,-0.1
C[C@H](CO)N1C[C@H](C)[C@H](CN(C)C(=O)Nc2ccccc2)Oc2ccc(NC(=O)C3CC3)cc2C1=O,2,13,0.2

# More records
SMILES,rRNA inh HTS,rRNA inh HTS OD600,rRNA inh HTS RFP
C[C@H]1CN([C@@H](C)CO)C(=O)c2cccc(NC(=O)C3CCOCC3)c2O[C@H]1CN(C)C(=O)Nc1ccc2c(c1)OCO2,0,12,-2.0
C[C@@H]1CN([C@@H](C)CO)C(=O)Cc2cc(NC(=O)CCCN(C)C)ccc2O[C@H]1CN(C)S(=O)(=O)c1ccccc1,2,-1,-3.0
C[C@@H]1CN([C@H](C)CO)S(=O)(=O)c2ccc(C3=CCCCC3)cc2O[C@@H]1CN(C)Cc1ccccc1,-14,-33,9.9
CO[C@H]1CN(C)C(=O)c2ccc(NC(=O)c3ccccc3)cc2OC[C@@H](C)N(CC2CC2)C[C@@H]1C,-1,1,2.4
COc1ccc(CN(C)C[C@H]2Oc3ccc(N(C)C)cc3CC(=O)N([C@H](C)CO)C[C@H]2C)cc1,1,-11,-1.5
CO[C@H]1CN(C)C(=O)c2cc(C#N)ccc2OC[C@@H]2O[C@@H](CC[C@H]2OC)CCN(C)C(=O)[C@H]1C,-1,-12,-3.6
O=C(NCC1CC1)[C@H]1[C@H](CO)[C@H]2Cn3c(ccc(-c4ccccc4)c3=O)[C@H]2N1Cc1cocn1,-2,1,1.4
C[C@H](CO)N1C[C@H](C)[C@H](CN(C)C)OCCCC[C@H](C)Oc2ccc(NC(=O)Nc3ccccc3)cc2C1=O,-1,-3,-2.9
Cc1ccc(S(=O)(=O)Nc2ccc3c(c2)C(=O)N([C@H](C)CO)C[C@H](C)[C@@H](CN(C)CC2CCCCC2)O3)cc1,3,-1,2.0
CO[C@H]1CN(C)C(=O)c2cc(NS(=O)(=O)CC(F)(F)F)ccc2OC[C@H](C)N(CCC(F)(F)F)C[C@@H]1C,0,4,-0.8
CO[C@@H]1CN(C)C(=O)c2ccc(NS(C)(=O)=O)cc2OC[C@H](C)N(Cc2cccnc2)C[C@H]1C,2,-2,3.4
Cc1cccc(C)c1NC(=O)C1c2ccccc2OCC(=O)N1C1CC1 (stereo unspecified),8,-3,2.1

# Single records (already shown). Order of values: rRNA inh HTS	rRNA inh HTS OD600	rRNA inh HTS RFP
# CCC(=O)Nc1ccc2c(c1)OC[C@@H](C)N(C(=O)CC)C[C@H](C)[C@H](OC)CN(C)C2=O in the list: 1	-1	-1.9
# CC(=O)Nc1ccc(CN2C(=O)C(Cc3ccccc3)ON=C2c2ncccc2C)cc1 (stereo unspecified) in the list: 0	6	-3.3
# CNC[C@H]1Oc2cc(C3=CCCC3)ccc2S(=O)(=O)N([C@H](C)CO)C[C@@H]1C in the list: 3	22	0.9

# Additional results follow:
SMILES,rRNA inh HTS,rRNA inh HTS OD600,rRNA inh HTS RFP
CCC(=O)N1[C@H](CO)[C@@H](c2ccccc2)C12CN(C(=O)c1ccncc1)C2,-2,-6,-0.2
CC(C)NC(=O)N(C)C[C@@H]1OCc2cn(nn2)CCCC(=O)N([C@@H](C)CO)C[C@@H]1C,1,-4,-1.5
COC(=O)c1sc(NC(=O)OCc2ccccc2)nc1CCNC(=O)OC(C)(C)C,2,12,-2.6
CCCC(=O)Nc1ccc2c(c1)C(=O)N(C)[C@@H]1CC[C@@H](CC(=O)NCC(F)(F)F)O[C@@H]1CO2,0,-3,1.0
CCC(=O)N1CC(=O)N2[C@H](CO)[C@@H](c3ccc(-c4ccc(C#N)cc4)cc3)[C@H]2C1,1,-7,-0.8
CO[C@H]1CN(C)C(=O)c2cc(NC(=O)CC(F)(F)F)ccc2OC[C@@H](C)N(C(=O)c2ccccc2F)C[C@@H]1C,1,2,1.9
COc1ccc2c3c(n(C)c2c1)[C@@H](CO)N(C(=O)C1CCCCC1)CC31CN(C(=O)c2ccncc2)C1,-6,0,0.0
C[C@H]1CN(C)C(=O)Cc2cc(N(C)C)ccc2O[C@H]1CN(C)S(C)(=O)=O,3,11,-1.1
N#C[C@H]1[C@@H](c2ccccc2-c2ccccc2F)[C@H](CO)N1C(=O)C1CC1,1,7,2.8
CS(=O)(=O)N1C[C@H](O)COC[C@H]2O[C@@H](CC(=O)NCc3ccc(-c4ccccc4)cc3)CC[C@@H]21,-5,-6,3.1
N#C[C@H]1[C@@H](c2ccc(C#CC3CCCC3)cc2)[C@H](CO)N1C(=O)c1cccc(F)c1,-29,-53,21
CC(=O)N(C)C[C@H]1Oc2ccccc2C(=O)N(C)C[C@H]1C,2,5,0.4
CN1CCCCC(NC(=O)c2cccs2)C1=O (stereo unspecified),12,10,3.3

# Bioassay records: PubChem BioAssay, Broad Institute

# Not all compounds are listed. The share of hits here may be higher or lower than overall.
